Screening results as filed in PubChem BioAssay.
Polio RdRp inh = inhibitors of poliovirus RNA polymerase binding and polymerization; P03300; poliovirus polymerase elongation, fluorescence polarization; stronger effect = lower value; % elongation, % (compound at 16.7 µg/mL); 0.66% of 150,000 active; AID 588519; in the data active = % elongation below about 90%; also: some results filed as inactive read as strong as hits
Target sequence (P03300 1749-2209 limits assumed): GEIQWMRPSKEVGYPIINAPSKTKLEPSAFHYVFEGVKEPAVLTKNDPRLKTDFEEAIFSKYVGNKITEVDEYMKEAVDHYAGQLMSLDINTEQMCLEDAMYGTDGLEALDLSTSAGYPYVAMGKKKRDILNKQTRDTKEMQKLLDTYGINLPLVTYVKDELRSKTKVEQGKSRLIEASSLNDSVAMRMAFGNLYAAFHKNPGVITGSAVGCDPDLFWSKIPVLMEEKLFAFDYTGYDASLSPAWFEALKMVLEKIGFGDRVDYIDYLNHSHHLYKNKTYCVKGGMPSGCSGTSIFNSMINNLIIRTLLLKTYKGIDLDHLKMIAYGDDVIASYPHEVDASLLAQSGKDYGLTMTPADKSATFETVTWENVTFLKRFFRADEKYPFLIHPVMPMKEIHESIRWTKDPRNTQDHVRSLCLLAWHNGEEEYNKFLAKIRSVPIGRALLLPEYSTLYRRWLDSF
Polio RdRp inh intensity = also measured in Polio RdRp inh; calls as there; % elongation; measured here: total intensity read-out; formula for this scale not given here;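 total fluorescence in place of polarization; lower means less elongation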
An asterisk follows results filed as active. Some of the compounds tested (hit frequency here may not be typical).

SMILES	Polio RdRp inh	Polio RdRp inh intensity
CC(C)NC(=O)c1ccc(-n2c(-c3ccccc3)cc3c2CCCC3)cc1	95	98
COc1ccc(S(=O)(=O)Nc2cc(S(=O)(=O)c3ccccc3)c(O)c(C)c2C)cc1	106	110
Fc1ccc(-c2csc(=Nc3cccc(C(F)(F)F)c3)n2Cc2ccc3c(c2)OCO3)cc1	102	107
Cc1ccsc1CCN1C(=O)N(c2ccccc2)C(=O)C1CC(=O)Nc1ccc(F)cc1 (stereo not given)	111	109
Cc1cccc(-c2nc(C)c(CCNC(=O)C(=O)Nc3ccccc3C#N)s2)c1	110	111
COc1cccc(CNC(=O)Cn2ncn3nc(-c4cccs4)cc3c2=O)c1OC	113	117
COc1ccc(NC(=O)/C(C#N)=C/c2cc(C)n(-c3ccc(F)cc3)c2C)cc1	102	105
Cc1ccc(-c2n[nH]c3c2C(c2ccc(C(C)(C)C)cc2)NC3=O)cc1 (stereo not given)	106	104
CCc1ccc2oc(C(=O)Nc3cc(C)ccc3C)cc(=O)c2c1	110	109
Cc1ccc(CN2C(=O)SC(Nc3ccc(Cl)cc3)C2=O)cc1 (stereo not given)	100	102
CCOCCCNC(=O)CN1C(=O)c2cccnc2Sc2ccccc21	112	112
CCOc1ccc(CNC(=O)C2CCN(C(=O)c3sccc3-n3cccc3)CC2)cc1	117	115
CCOc1cc(C)c(C(C)C)cc1S(=O)(=O)n1ccnc1CC	101	106
COc1cc(C(=O)Nc2ccc(Cl)c(-c3nc4ncccc4o3)c2)cc(OC)c1OC	102	100
CCOC(=O)N1CCc2c(sc3c2c(=O)n(-c2ccc(CC)cc2)c(=O)n3CC(=O)c2ccccc2)C1	101	104

Retrieved by compound from the list above, 2 records:
SMILES	Polio RdRp inh	Polio RdRp inh intensity
CCOCCCNC(=O)CN1C(=O)c2cccnc2Sc2ccccc21	112	112
Cc1ccc(-c2n[nH]c3c2C(c2ccc(C(C)(C)C)cc2)NC3=O)cc1 (stereo not given)	106	104

Next records follow:
SMILES	Polio RdRp inh	Polio RdRp inh intensity
COc1ccc(CNC(=O)CCc2nnc3n(C)c(=O)c4sccc4n23)cc1	104	106
COc1cc2nc(Nc3ccc(F)cc3)nc(N)c2cc1OC	106	109
CC(=O)Nc1cccc(-n2cc3c(c2-c2ccccc2Cl)c(=O)n(C)c(=O)n3C)c1	102	105
Cc1cccc(NC(=O)Cn2c(=O)n(Cc3ccc(C(=O)NCc4ccc5c(c4)OCO5)cc3)c(=O)c3ccccc32)c1	105	98
CC(C)c1ccc(Nc2nc3c(S(=O)(=O)c4ccc(Br)cc4)nnn3c3ccsc23)cc1	106	106
CCSc1ncc(Cl)c(C(=O)Nc2ccc(S(=O)(=O)Nc3nccc(C)n3)cc2)n1	112	109
Cc1nc(-c2ccc(C)c(S(=O)(=O)N3CCC(C(=O)NCc4ccc(F)cc4)CC3)c2)no1	103	107
Cc1cccn2c(=O)c3cc(C(=O)NCc4ccccc4)c(=N)n(CCOCCO)c3nc12	107	113
Cc1ccc(Cn2c(C)c3cnn(CC(=O)NCCc4ccc(Cl)cc4)c(=O)c3c2C)cc1	100	105
Cc1ccc(C)c(CN2C(=O)c3ccccc3S(=O)c3ccc(C(=O)NCc4ccccc4Cl)cc32)c1 (stereo not given)	110	103
Cc1ccc2oc(=O)c3cc(C(=O)N(Cc4ccccc4)C(C)C)sc3c2c1	108	113
O=S(=O)(c1cccc(C(F)(F)F)c1)N1CCC(Oc2ccc(-n3cnnn3)cc2)CC1	112	109
Cc1ccc(OCc2nc3ccccc3n2CC(C)C)cc1	104	106
Cc1ccccc1NC(=O)c1ccccc1NC(=O)c1ccccc1F	106	111
Cc1cccc(NC(=O)c2sc3nc(N4CCOCC4)c4c(c3c2N)CC(C)(C)OC4)c1	109	110
Clc1ccc(-c2nnn3c2nc(N2CCCCC2)c2ccccc23)cc1	104	104
Cc1ccc(C)c(N2CCN(S(=O)(=O)c3ccc(-c4cnc(C5CC5)o4)cc3)CC2)c1	106	107
N#Cc1ccc(-c2cccs2)nc1SCc1ccc(Br)cc1	114	122
CCC(=O)N1CCc2cc(S(=O)(=O)Nc3cc(C)ccc3OC)ccc21	116	116
CCc1ccc(CSc2nc(-c3ccccc3OC)nc3c2Cc2c(CO)cnc(C)c2O3)cc1	117	110
COc1ccccc1C(=O)NCC(c1ccc(N(C)C)cc1)N1CCc2ccccc21 (stereo not given)	109	116
Cc1cc(C)n2nc(SCC(=O)Nc3cc(Cl)ccc3C)nc2n1	103	102
CCc1ccc(-n2nc(C)c3c(C)cc(=O)n(CC(=O)NCc4ccc(C)cc4)c32)cc1	111	116
CCN(c1ccccc1)S(=O)(=O)c1nnc(NC(=O)c2ccccc2OC)s1	107	105
CN(C)c1ccc(CN(CC2CCCO2)C(=O)COc2ccc(Cl)cc2)cc1 (stereo not given)	111	111
O=S(=O)(c1ccc(Cl)cc1)c1nc(-c2ccco2)oc1SCc1ccc(F)cc1	105	109
Cc1ccc(C)c(Cn2c(=O)n(Cc3ccccc3)c(=O)c3sc4ccccc4c32)c1	106	107
COCCn1c(=N)c(C(=O)NC2CCCC2)cc2c(=O)n3cc(C)ccc3nc21	112	109
COc1cc(C(=O)NCC(c2cccnc2)N2CCc3ccccc3C2)cc(OC)c1OC (stereo not given)	108	107
Cc1ccc(C)c(N2CCN(C(=O)NCc3noc4ccccc34)CC2)c1	110	114
COc1ccc(-n2c(SCc3ccccc3F)nc3c([nH]c4ccccc43)c2=O)cc1OC	105	107
CCCCN(C)C(=O)Cn1cnc2sc(C)c(S(=O)(=O)N3CCC(C)CC3)c2c1=O	106	106
CCCOc1ccc(CNC(=O)c2ccc(-n3c(C)cc4c3CCC(C)C4)cc2)cc1 (stereo not given)	106	107
COc1cccc(-n2cc(C(=O)NCc3cccc(Cl)c3)c3ccccc3c2=O)c1	108	109
COc1ccc(NS(=O)(=O)c2cnc(N)nc2)cc1Cl	109	108
COc1ccc(-c2nc3scc(CCNS(=O)(=O)c4ccc(Oc5ccccc5)cc4)n3n2)cc1	104	115
COC(=O)c1cccc(NC2=NS(=O)(=O)c3ccccc32)c1	104	109
Cc1ccc(-c2nc(SCC(=O)NCC3CCCO3)c3c(=O)n(C)c(=O)n(C)c3n2)cc1 (stereo not given)	110	107
Nc1c(C(=O)NCc2ccc3c(c2)OCO3)nnn1CC(=O)Nc1ccc(Br)cc1	113	112
CCOc1ccc(C2CC(=O)n3nc(-c4ccc(C)cc4)nc3S2)cc1OC (stereo not given)	110	109
Cc1ccc(S(=O)(=O)NCC2CCC(C(=O)NCCc3ccc(Cl)cc3)CC2)cc1 (stereo not given)	108	104
COC(=O)c1scc(-c2ccc(C)cc2)c1S(=O)(=O)Nc1cccc(Cl)c1C	97	106
CCCN1C(=O)c2[nH]nc(-c3ccccc3O)c2C1c1ccc(OCc2ccccc2)c(OC)c1 (stereo not given)	110	111
O=C(CSc1nc2c(c(=O)[nH]1)CCCC2)Nc1ccccc1C(F)(F)F	109	115
CN(C)CCCNC(=O)C(=O)NCC(c1ccc2c(c1)OCO2)N1CCOCC1 (stereo not given)	110	105
CCC(Oc1ccccc1)C(=O)Nc1ccc(OCc2cc(=O)n3ccccc3n2)cc1 (stereo not given)	92	112
Cc1nc(N2C(=O)c3oc4ccccc4c(=O)c3C2c2ccccc2F)sc1C (stereo not given)	99	104
Cc1cccc(-c2nc3cc(NC(=O)c4ccc(OCC(C)C)cc4)ccc3o2)c1	109	108
COc1ccc(NC(=O)N2CCOc3ccc(Cl)cc32)cc1	102	104

A run of entries from further up:
SMILES	Polio RdRp inh	Polio RdRp inh intensity
CCc1ccc(-n2nc(C)c3c(C)cc(=O)n(CC(=O)NCc4ccc(C)cc4)c32)cc1	111	116
CCN(c1ccccc1)S(=O)(=O)c1nnc(NC(=O)c2ccccc2OC)s1	107	105
CN(C)c1ccc(CN(CC2CCCO2)C(=O)COc2ccc(Cl)cc2)cc1 (stereo not given)	111	111
O=S(=O)(c1ccc(Cl)cc1)c1nc(-c2ccco2)oc1SCc1ccc(F)cc1	105	109
Cc1ccc(C)c(Cn2c(=O)n(Cc3ccccc3)c(=O)c3sc4ccccc4c32)c1	106	107
COCCn1c(=N)c(C(=O)NC2CCCC2)cc2c(=O)n3cc(C)ccc3nc21	112	109
COc1cc(C(=O)NCC(c2cccnc2)N2CCc3ccccc3C2)cc(OC)c1OC (stereo not given)	108	107
Cc1ccc(C)c(N2CCN(C(=O)NCc3noc4ccccc34)CC2)c1	110	114
COc1ccc(-n2c(SCc3ccccc3F)nc3c([nH]c4ccccc43)c2=O)cc1OC	105	107
CCCCN(C)C(=O)Cn1cnc2sc(C)c(S(=O)(=O)N3CCC(C)CC3)c2c1=O	106	106
CCCOc1ccc(CNC(=O)c2ccc(-n3c(C)cc4c3CCC(C)C4)cc2)cc1 (stereo not given)	106	107
COc1cccc(-n2cc(C(=O)NCc3cccc(Cl)c3)c3ccccc3c2=O)c1	108	109
COc1ccc(NS(=O)(=O)c2cnc(N)nc2)cc1Cl	109	108
COc1ccc(-c2nc3scc(CCNS(=O)(=O)c4ccc(Oc5ccccc5)cc4)n3n2)cc1	104	115
COC(=O)c1cccc(NC2=NS(=O)(=O)c3ccccc32)c1	104	109
Cc1ccc(-c2nc(SCC(=O)NCC3CCCO3)c3c(=O)n(C)c(=O)n(C)c3n2)cc1 (stereo not given)	110	107
Nc1c(C(=O)NCc2ccc3c(c2)OCO3)nnn1CC(=O)Nc1ccc(Br)cc1	113	112
CCOc1ccc(C2CC(=O)n3nc(-c4ccc(C)cc4)nc3S2)cc1OC (stereo not given)	110	109
Cc1ccc(S(=O)(=O)NCC2CCC(C(=O)NCCc3ccc(Cl)cc3)CC2)cc1 (stereo not given)	108	104
COC(=O)c1scc(-c2ccc(C)cc2)c1S(=O)(=O)Nc1cccc(Cl)c1C	97	106
CCCN1C(=O)c2[nH]nc(-c3ccccc3O)c2C1c1ccc(OCc2ccccc2)c(OC)c1 (stereo not given)	110	111
O=C(CSc1nc2c(c(=O)[nH]1)CCCC2)Nc1ccccc1C(F)(F)F	109	115
CN(C)CCCNC(=O)C(=O)NCC(c1ccc2c(c1)OCO2)N1CCOCC1 (stereo not given)	110	105
CCC(Oc1ccccc1)C(=O)Nc1ccc(OCc2cc(=O)n3ccccc3n2)cc1 (stereo not given)	92	112
